# hNpr1 antagonist – Natriuretic polypeptide receptor (hNpr1) antagonism - Primary qHTS; Atrial natriuretic peptide receptor 1 (Homo sapiens), P16066; HEK293 hNpr1 GloSensor cGMP, ANP-stimulated luminescence; Potency, µM (highest dose often 46.3 µM), inactives show at the top dose activity change, negative = inhibition, usual class: inhibitors; 76,000 compounds, 1.6% hits; active = well fitted inhibition curve with a large enough effect; inconclusive = small, poorly fitted or top-dose-only effect; inactive = no such curve, though single readings can be large or run the other way;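 note: nearly all actives have a fitted effect of over 60% in size; nearly all hits also lower the signal before the agonist is added; a reference antagonist and vehicle were the controls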
#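 HEK293 cells stably expressing human Npr1 and cGMP GloSensor pGS-40F, loaded 2 h with 2% GloSensor reagent, given compound 30 min at room temperature. Luminescence read before and 20 min after 0.1 nM hNppA.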
# Starred values were filed as active, the others as inactive; [ ] = another dose, or the depositor's remark. % is set by controls: 0 for no effect and ±100 for the full control effect; potency is the fitted concentration of half-maximal effect. Some of the compounds tested (hit frequency here may not be typical).
hNpr1 antagonist	SMILES
11.9%	O=C(NC1CCCCC1)[C@@H]1C[C@@H](O)CN1C1CCN(C(=O)c2ccccn2)CC1
-7.3%	COc1cccc(CCC(=O)N2CCCC(Nc3ccc(F)cc3)C2)c1 (configuration not stated)
5.9%	O=C(c1cc2ccccc2[nH]1)N1C[C@@H](CO)[C@H](c2ccccn2)C1
0.0%[70.6 µM]	O=C(NCc1ccc(Cl)nc1)c1ccc2cncn2c1
-27.1%	O=C1NCN(Cc2ccc(Cl)cc2)C12CCN([S+](=O)([O-])c1cccc(C(F)(F)F)c1)CC2
0.7%	CCOc1cc(=O)n2c(c1C(=O)Nc1ccc(C)cc1Cl)CCCC2
0.3%	Cc1nn(C)c(C)c1S(=O)(=O)N1CCC(c2noc(-c3cccnc3)n2)C1 (configuration not stated)
1.5%	COCCN1CCCC2(CCN(C(=O)c3oc4cc(C)ccc4c3C)C2)C1=O (configuration not stated)
-3.9%	CC(C)N1C(=O)C2(CCCCC2)C1C(=O)N1CCOCC1 (configuration not stated)
-2.7%	O=C(Cc1ccsc1)Nc1ccc(-c2nnc3n2CCCC3)cc1
-0.5%	O=C(c1ccc2c(c1)OCCO2)N1CCc2[nH]nc(-c3ccccc3F)c2C1
-15.4%[70.6 µM]	N#Cc1ccc(CNC2(Cc3cc(COc4ccccc4)on3)COC2)cc1

# Structural class, the entries above with sulfur (3)
hNpr1 antagonist	SMILES
-27.1%	O=C1NCN(Cc2ccc(Cl)cc2)C12CCN([S+](=O)([O-])c1cccc(C(F)(F)F)c1)CC2
0.3%	Cc1nn(C)c(C)c1S(=O)(=O)N1CCC(c2noc(-c3cccnc3)n2)C1 (configuration not stated)
-2.7%	O=C(Cc1ccsc1)Nc1ccc(-c2nnc3n2CCCC3)cc1

# Returning to the listing; the 6 compounds before the break are reprinted first.
hNpr1 antagonist	SMILES
0.3%	Cc1nn(C)c(C)c1S(=O)(=O)N1CCC(c2noc(-c3cccnc3)n2)C1 (configuration not stated)
1.5%	COCCN1CCCC2(CCN(C(=O)c3oc4cc(C)ccc4c3C)C2)C1=O (configuration not stated)
-3.9%	CC(C)N1C(=O)C2(CCCCC2)C1C(=O)N1CCOCC1 (configuration not stated)
-2.7%	O=C(Cc1ccsc1)Nc1ccc(-c2nnc3n2CCCC3)cc1
-0.5%	O=C(c1ccc2c(c1)OCCO2)N1CCc2[nH]nc(-c3ccccc3F)c2C1
-15.4%[70.6 µM]	N#Cc1ccc(CNC2(Cc3cc(COc4ccccc4)on3)COC2)cc1
3.5%	COc1ccc(C2(C(=O)N3C[C@@H](Oc4ccccc4)C[C@H]3C(=O)N3CCCC3)CC2)cc1
0.7%	COc1cccc(-c2nc(N3CCOCC3)cc3c2CN(Cc2ccccc2)C3=O)c1OC
0.8%	CC(=O)N1CCC(N2CC3(C2)C(=O)N(CCCN2CCCC2=O)C(=O)[C@@H]2C[C@@H](O)CN23)CC1
22.5%[70.6 µM]	Cn1nc(C2CCN(C(=O)c3ccc(F)cc3)CC2)[nH]c1=O
0.3%	COc1ccc(C(=O)N2CC[C@H](CO)[C@H](NC(=O)C3CC3)C2)c(OC)n1
-6.4%	CN1C(=O)c2cccn2CC1CNC(=O)c1n[nH]c2ccccc12 (configuration not stated)
21.0%	O=S(=O)(c1ccc(F)cc1)N1CCC2(CC1)CC(N1CCOCC1)CCO2 (configuration not stated)
